MT1-MMP act inh: MT1-MMP (human) activation inhibition; HT1080 RFP-PRO-GFP cells, GFP/RFP ratio fluorescence, overnight; percent of plate control window, DMSO zero; GFP/RFP ratio change, % at 20 µM; 0.061% of 360,000 active;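 active = GFP/RFP ratio change of at least 30% with cell ATP level not reduced by more than half and red fluorescence within 50% of control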; also: strong numbers were not always called active
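Test system: HT1080 RFP-PRO-GFP cells; Benchmarks: DMSO and RFP-L50D-GFP cell wells; Timing: cells overnight before dosing, compound overnight, 37 °C, 5% CO2; Compound: one 20 µM compound dose with 1% DMSO; Read-out: GFP/RFP fluorescence ratio.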
CSC inhib: blocks cancer stem cells; cancer stem cell-like cells viability, luminescence; inhibition, % at 7.5 µM; 1.1% of 300,000 active;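 active = mean at 75% or more and at least half the replicates too; inconclusive = mean and replicates disagree; tested in HMLE shEcad cells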;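 also: 0% = median of negative and 100% = median of positive control wells; the first replicate is given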
Yeast UUG start: yeast start codon fidelity modulation; activity score, % at 18.7 µM; AID 602363; 0.13% of 350,000 active; S. cerevisiae UUG-firefly luciferase reporter, luminescence/redox ratio;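 active = replicate mean at a twofold rise or more, about +100% in these data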;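 also: firefly luciferase made from a UUG start codon reports start codon fidelity; reporter light over untreated wells divided by growth signal over untreated wells; some hits fall short of that in this replicate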
Env fusion inh: HIV envelope-mediated fusion inhibition; AID 651610; HeLa-JRFL Env/CEM21 cell fusion, luciferase; inhibition, % at 12.3 µM; 1.1% of 360,000 active;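 active = mean replicate inhibition score of at least 50 and every replicate individually at or above 50; inconclusive = only one of the two criteria met; inactive = mean below 50 and not all replicates reaching 50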;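 also: 0% = plate neutral controls and 100% = maraviroc near 300 nM; one replicate is shown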
Rce1 inh: inhibitors of yeast Ras-converting enzyme. Q03530. yeast membranes, quenched prenylated peptide cleavage fluorescence. calls only. 0.27% of 290,000 active;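 active = fall in fluorescence gain of 50% or more versus controls, with final raw signal at or below 3038400; inconclusive = same 50% fall but final raw signal above 3038400; inactive = fall in fluorescence gain under 50%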;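 also: plate controls were neutral control wells for no effect and wells lacking membranes for full effect; tested at 10 µM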
Target sequence (Q03530 whole entry, looked up): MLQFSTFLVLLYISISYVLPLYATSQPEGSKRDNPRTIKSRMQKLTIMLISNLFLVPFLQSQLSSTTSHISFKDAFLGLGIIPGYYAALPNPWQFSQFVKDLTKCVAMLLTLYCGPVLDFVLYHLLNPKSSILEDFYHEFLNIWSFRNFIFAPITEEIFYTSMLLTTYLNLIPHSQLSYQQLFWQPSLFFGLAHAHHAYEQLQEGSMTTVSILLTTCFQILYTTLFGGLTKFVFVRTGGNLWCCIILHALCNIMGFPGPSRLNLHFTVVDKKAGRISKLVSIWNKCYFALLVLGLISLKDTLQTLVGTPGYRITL
eIF4H FP inh: inhibitors of RNA binding by human eIF4H. Q15056. eIF4H fluorescence polarization binding assay. inhibition, % at 35 µM. 0.94% of 290,000 active;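 active = 50% or more with normal probe brightness, or confirmed in later tests; inconclusive = above 50% with abnormal brightness, or retests that disagree; inactive = below 50% or failed in later tests; about a fifth of its hits are not listed in these tables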;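 also: calls also rest on retests at 20 µM and on dose response follow-up; 0% = protein and probe with vehicle and 100% = probe without protein; strong numbers were not always called active; many hits fall short of the cut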
PABP FP inh: blocks human PABP binding to poly(A) RNA; P11940; fluorescence polarization; inhibition, % at 35 µM; 1% of 290,000 active; AID 2014;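 active = 50% or more with normal probe brightness, or confirmed in later tests; inconclusive = above 50% with abnormal brightness, or retests that disagree; inactive = below 50% or failed in later tests; about a fifth of its hits are not listed in these tables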;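 also: calls also rest on retests at 20 µM and on dose response follow-up; controls were probe without protein and protein plus probe with vehicle; some compounds called inactive have numbers as strong as hits; many hits fall short of the cut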
eIF4H FP inh retest: also measured in eIF4H FP inh; calls as there; inhibition, %; compound at 20 µM; confirmation average;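 mean of two retest wells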
PABP FP inh retest: further read-out of PABP FP inh, marked with its call; inhibition, %; compound at 20 µM; confirmation repeats;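 mean of two retest wells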
MT1-MMP act inh RFP: further read-out of MT1-MMP act inh, marked with its call; RFP signal change, %; measured here: RFP expression control read;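 0 = vehicle wells; hits needed this value within 50% of zero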
* hit, by the source's call; i = inactive; ? = inconclusive; / = not tested or not shown; & = joins results of further samples; [ ] = remark or other dose.

SMILES	MT1-MMP act inh	MT1-MMP act inh RFP	CSC inhib	Yeast UUG start	Env fusion inh	Rce1 inh	eIF4H FP inh	PABP FP inh	others
Cc1cccc(-n2c(/C=C/c3ccc([N+](=O)[O-])o3)nc3ccccc3c2=O)c1	-134	-20	89*	-14	/	i	73	-2	eIF4H FP inh retest=2;PABP FP inh retest=3
CC(C)NC(=O)Cn1cc(C(=O)c2ccccc2F)c2ccccc21	0	0	4	-12	22	i	0	0
O=C1NC(=O)C(=Cc2coc3ccc(O)cc3c2=O)C(=O)N1	-1	2	-4	-10	8	i	?	?
COc1cc2c(cc1OC)-c1c3c(cc4c1[C@@H](C2)N(C)CC4)OCO3	33*	20*	/	-11	-42	i	16	-2
COc1ccccc1N1CCN(Cc2cccc(OC)c2O)CC1	4	-2	-6	-10	14	i	-1	22
CC1(C)C2([N+](=O)[O-])CNCC1([N+](=O)[O-])CNC2	2	5	-6	-15	/	i	0	-6
O=P(C(c1ccc2c(c1)OCO2)N1CCOCC1)(N1CCOCC1)N1CCOCC1 (centres undefined)	5	2	-11	-9	-15	i	8	-7
COc1ccccc1-n1c(-c2cccs2)nc2ccccc2c1=O	-2	-4	-19	/	23	i	-4	27
CCCCn1c(=O)c(C(=O)NCc2ccccc2Cl)c(O)c2ccccc21	-3	-15	53	-9	14	i	6	-13
Clc1ccc2c(c1)C(c1ccccc1Cl)=NCc1nncn1-2	/	/	17	3	-43	i	-13	10
CC(=O)Nc1cc(C(=O)N2CCC3(CC2)OCCO3)ccc1Sc1ccc(F)cc1	6	8	-9	/	-6	i	6	3
CCOC(=O)C1CCN(C(C)C(=O)c2c(C)[nH]c3cc(C)ccc23)CC1 (centres undefined)	-2	-2	/	-10	/	i	-8	-8
CCCc1c(C)nc(-c2ccc(C)cc2)nc1OC(=O)N(C)C	2	-8	-6	/	-1	i	-7	5
Cc1cccc(C)c1OP(N)(=O)Oc1c(C)cccc1C	4	0	0	/	-4	i	0	-4
CC1(C)C(C(=O)NCc2ccco2)C1(C)C	1	-4	-2	4	/	i	-2	0
NC(Cc1ccccc1Cl)c1nn[nH]n1 (centres undefined)	-1	6	/	-9	1	/	/	/
COc1ccc(OCC#CCN2CCCCCC2)cc1	-2	5	0	/	-3	i	14	-11
O=C(CCC(=O)N1CCC2(CC1)OCCO2)Nc1nnc(C(F)(F)F)s1	5	2	-9	-1	/	i	-1	-3
C=CCn1c(O)c(C(C)=NCCCN2CCOCC2)c(=O)[nH]c1=O	3	1	/	-21	/	i	-8	-2
COC(=O)C1=C(c2ccc(C(C)=O)cc2)C[C@@H]2CC[C@H]1N2C(=O)NCc1ccc2c(c1)OCO2	-2	-6	10	-20	-46	/	/	/
Cc1ccc(CN2CCSc3ccc(C(=O)N4CCC5(CC4)OCCO5)cc32)cc1	-10	-5	2	-14	-1	i	-9	-3
COc1ccccc1-n1c(/C=C/c2ccccn2)nc2ccccc2c1=O	-6	-6	-2	-24	7	i	-3	4
COc1ccccc1Cn1c(SCC(=O)C(C)(C)C)nc2cc(C(=O)N3CCC4(CC3)OCCO4)ccc2c1=O	/	/	-13	/	/	i	-3	-1
Cc1nonc1-c1nc(-c2nonc2N)n[nH]1	0	0	2	-14	/	i	-12	-5
O=c1c(C=Nc2cccnc2Cl)c(O)n(CCCCl)c(=O)n1C1CCCCC1	-119	4	-8	/	-10	i	?	-7
Cc1ccc(OCC(=O)N2CCN(Cc3ccc4c(c3)OCO4)CC2)cc1C	-1	3	3	/	12	i	-2	0
COc1ccc(CCNCc2ccsc2)cc1OC	-3	3	-8	71	-5	i	7	1
NC(=O)C1(N2CCCCC2)CCN(Cc2ccccc2)CC1	-1	-3	4	-18	/	i	-10	7
Cn1c(O)c(C=Nc2ccc(F)cc2)c(=O)[nH]c1=O	1	1	-1	-8	9	/	-11	-1
CCCCOC(=O)C1=C(N)OC2=C(C(=O)CCC2)[C@]12C(=O)N(C)c1ccccc12	-3	3	-2	4	/	i	-3	4

Quoted at random: 6 entries already listed.
SMILES	MT1-MMP act inh	MT1-MMP act inh RFP	CSC inhib	Yeast UUG start	Env fusion inh	Rce1 inh	eIF4H FP inh	PABP FP inh	others
COc1ccccc1Cn1c(SCC(=O)C(C)(C)C)nc2cc(C(=O)N3CCC4(CC3)OCCO4)ccc2c1=O	/	/	-13	/	/	i	-3	-1
Cc1ccc(CN2CCSc3ccc(C(=O)N4CCC5(CC4)OCCO5)cc32)cc1	-10	-5	2	-14	-1	i	-9	-3
COc1ccc(CCNCc2ccsc2)cc1OC	-3	3	-8	71	-5	i	7	1
NC(=O)C1(N2CCCCC2)CCN(Cc2ccccc2)CC1	-1	-3	4	-18	/	i	-10	7
Cc1ccc(OCC(=O)N2CCN(Cc3ccc4c(c3)OCO4)CC2)cc1C	-1	3	3	/	12	i	-2	0
O=c1c(C=Nc2cccnc2Cl)c(O)n(CCCCl)c(=O)n1C1CCCCC1	-119	4	-8	/	-10	i	?	-7

Sorted by count of non-hydrogen atoms (smallest number first): some entries from above
SMILES	MT1-MMP act inh	MT1-MMP act inh RFP	CSC inhib	Yeast UUG start	Env fusion inh	Rce1 inh	eIF4H FP inh	PABP FP inh	others
Cc1nonc1-c1nc(-c2nonc2N)n[nH]1	0	0	2	-14	/	i	-12	-5
COc1ccc(CCNCc2ccsc2)cc1OC	-3	3	-8	71	-5	i	7	1
O=c1c(C=Nc2cccnc2Cl)c(O)n(CCCCl)c(=O)n1C1CCCCC1	-119	4	-8	/	-10	i	?	-7

(cont.)
SMILES	MT1-MMP act inh	MT1-MMP act inh RFP	CSC inhib	Yeast UUG start	Env fusion inh	Rce1 inh	eIF4H FP inh	PABP FP inh	others
CCCCCCN=C(C)c1c(O)n(Cc2ccccc2)c(=O)[nH]c1=O	-7	-4	/	-12	9	i	-15	-18
CNCCc1ccc(O)c(O)c1	1	3	-4	-23	-13	i	/	/
COc1ccc(NC2=NC(C)(C)CS2)cc1	5	7	-1	-25	-3	i	0	-12
CSCCC(c1nnnn1C1CCCC1)N1CCC2(CC1)C(=O)NCN2c1ccccc1 (centres undefined)	-1	-1	/	-8	-40	/	/	/
Cc1cc(OCc2nn[nH]n2)c2c3c(c(=O)oc2c1)CCCC3	2	7	-1	/	-53	i	1	17
COC(=O)C1=C(c2cccc(OCc3ccccc3)c2)C[C@@H]2CC[C@H]1N2C(=O)NNCc1ccccc1	-4	-9	21	2	32	/	/	/
COc1cccc(CNC(=O)CCC(=O)N2C[C@H]3C[C@H](C2)c2cccc(=O)n2C3)c1OC	1	2	7	3	/	i	3	2
C[C@@H]1CN([C@H](C)CO)C(=O)CCCn2cc(nn2)CO[C@H]1CN(C)C(=O)Oc1ccc2ccccc2c1	4	7	/	-11&3&10	-1[16.7 µM]	/	/	/
CC(=O)N1N=C2C3CCN(CC3)C2C1c1cccc2ccccc12 (centres undefined)	-2	4	-9	-15	-18	i	-3	11
CCOc1ccc(NC(=O)CCNC(=O)N2C[C@H]3C[C@@H](C2)c2cccc(=O)n2C3)cc1	2	7	-4	-17	/	/	-2	-5

Gathered by group, the entries above with an aryl thioether with sulfur outside any ring (2)
SMILES	MT1-MMP act inh	MT1-MMP act inh RFP	CSC inhib	Yeast UUG start	Env fusion inh	Rce1 inh	eIF4H FP inh	PABP FP inh	others
CC(=O)Nc1cc(C(=O)N2CCC3(CC2)OCCO3)ccc1Sc1ccc(F)cc1	6	8	-9	/	-6	i	6	3
COc1ccccc1Cn1c(SCC(=O)C(C)(C)C)nc2cc(C(=O)N3CCC4(CC3)OCCO4)ccc2c1=O	/	/	-13	/	/	i	-3	-1

(more compounds)
SMILES	MT1-MMP act inh	MT1-MMP act inh RFP	CSC inhib	Yeast UUG start	Env fusion inh	Rce1 inh	eIF4H FP inh	PABP FP inh	others
N=c1sc2c(n1Cc1ccccc1)CCCC2	-7	-2	/	-13	/	i	-2	-12
CC(=NCCO)c1c(O)n(C)c(=O)n(C)c1=O	4	3	-10	-15	/	i	-8	8
O=C1CN=C(c2ccccc2)c2oc3ccc(Br)cc3c2N1	-8	-5	-19	/	-303	i	-2	10
Cc1cccc(NC(N)=S)c1	-8	0	-7	-21	/	i	-6	-1
O=C1C=CC(=O)C2C1C1(Cl)C(Cl)=C(Cl)C2(Cl)C1(Cl)Cl (centres undefined)	3	-15	/	-15	66*	/	/	/
CC12CC(c3ccccc3O1)C(C(=O)OCc1ccccc1)C(=O)N2 (centres undefined)	6	-1	-19	25	-2	i	-2	-5
CC(C)CCn1c(=O)c(C(=O)NCc2ccc3c(c2)OCO3)c(O)c2ccccc21	-5	-12	73	-10	36	i	0	0
O=C1NC(=O)C(=Cc2ccc(-c3cc(Cl)ccc3[N+](=O)[O-])o2)C(=O)N1	-92	-3	/	/	-63	i	38	0
CCOC(=O)c1cc(CC)sc1/N=C/C1C(=O)NC(=S)NC1=O	-2	9	-4	-19	-19	i	100	-4	eIF4H FP inh retest=-19;PABP FP inh retest=7
O=C(Nc1cccc(Cl)c1)c1c(O)c2c(n(Cc3ccco3)c1=O)CCCC2	/	/	/	/	-31	i	-7	-15
CC1=Nc2ccccc2/C1=C/c1c(O)[nH]c(=O)[nH]c1=O	-8	2	-3	-5	5	i	-17	-5
Cc1ccccc1C(=O)N1Cc2cnnn2-c2ccccc2C1C#N (centres undefined)	2	7	/	-19	-6	/	/	/
O=P(OC1=CCCCC1)(c1ccccc1)c1ccccc1	2	3	/	-16	-15	/	/	/
CCOC(=O)c1c(C)[nH]c(C(=O)C(C)N2CCCC2)c1C (centres undefined)	0	2	45	/	-13	i	6	-5
COc1ccc(CNCCc2ccc(Cl)cc2Cl)cc1	4	4	-6	-16	-8	i	42	16
Cc1ccc(CN2CCN(CC(=O)N3CCC4(CC3)OCCO4)C2=O)cc1	3	7	-4	-10	/	i	-6	-2
CC(=O)Nc1ccc(C(c2c(O)c3ccccc3oc2=O)c2c(C)n(C)n(-c3ccccc3)c2=O)cc1 (centres undefined)	0	1	-4	/	-14	i	-1	9
O=c1cccc2n1CC1CC2CN(Cc2c(F)cccc2Cl)C1 (centres undefined)	2	3	-3	-12	/	i	-17	43
Cc1ccc(S(=O)(=O)N(C)c2ccc(C(=O)NCC3(N(C)C)CCCCC3)cc2)cc1	2	5	/	-2	-25	i	0	-8
CCCCP(=O)(O)CCC(=O)O	-1	5	10	-11	/	i	-5	13
Cc1cc(C)n(CCOC(=O)C2C(C=C(Cl)Cl)C2(C)C)n1 (centres undefined)	2	-8	46	0	/	i	1	-2
Cc1nc2ccccc2c(=O)n1-c1cccc(C(F)(F)F)c1	-3	-1	-4	6	3	i	-4	5
CCC(=Nc1ccc(OC)cc1OC)c1c(O)[nH]c(=O)[nH]c1=O	8	8	11	-21	-83	i	-5	0
Cc1cccc(C)c1NC(=O)c1cccn(Cc2ccc3c(c2)OC(F)(F)O3)c1=O	-3	-3	1	-6	67*	i	-5	-18

Compound activity deposited in PubChem by several laboratories.

These rows are one share of the data; the hit share may differ from the screen's.
